# HSD17B inhib: qHTS Assay for Inhibitors of HSD17B4, hydroxysteroid (17-beta) dehydrogenase 4 | AID 893, 2007 | hit rate 7.6% among 75,000 | 3-hydroxyacyl-CoA dehydrogenase type-2 (Homo sapiens), Q99714 | recombinant HSD17B10, NADH fluorescence kinetic; many of its hits are not listed in these tables | Potency, µM (titrated, usually from 57.1 µM), without a hit: at the top dose activity change, negative = inhibition, usual class: inhibitors; active = well fitted inhibition curve with a large enough effect; inconclusive = small, poorly fitted or top-dose-only effect; inactive = no such curve, though single readings can be large or run the other way;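 also: the protocol describes HADH2 (HSD17B10) and not the HSD17B4 of the title; nearly all actives have a fitted effect of over 70% in size; most hits overshoot -100% by far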
#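 20 nM HADH2, pH 9.0 Tris/Tween; cpd preinc 15 min RT; start w/ 1 mM NAD+ + 90 uM b-hydroxybutyryl-CoA; kinetic fluor ex360/em450 q30s x 4 min; delta last-first.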
# * marks the source's active call; other numbers are inactive results; ? = inconclusive; & = joins results of further samples; [ ] = dose if it differs, or a comment. % is scaled to controls: 0 for no effect and ±100 for the full control effect; potency is read from the fitted curve at half-maximal effect. A portion of the library (hit frequency here may not be typical).
SMILES,HSD17B inhib
COc1ccc(CCNC(=O)CC2COc3ccccc3O2)cc1OC (centres undefined),5.0%
CCOC(=O)c1c(C)[nH]c2cc(Br)c(OC)cc12,-0.8%
CCn1c(C(C#N)/C(=N\S(=O)(=O)c2cccs2)c2ccccc2)nc2ccccc21 (centres undefined),-12.1%
CC1(C)CC(=O)C=C(NCc2cccnc2)C1,-4.8%
CC(Oc1ccccc1)C(=O)NC1CC(C)(C)NC(C)(C)C1 (centres undefined),4.9%
O=c1oc(-c2cccs2)nc2sc3c(c12)CCC3,-6.9%
COC(=O)C1=C(C)Nc2ncnn2C1c1ccccn1 (centres undefined),-17.8%
CCOC(=O)c1c(NC(=O)CSc2nnc(C)s2)sc2c1CCN(C)C2,20µM*
O=C(Nc1ccccc1)NC1(C(=O)N2CCN(c3ncccn3)CC2)CCCCC1,2.5%
Cc1cccc(NS(=O)(=O)c2cc(C(=O)O)ccc2Cl)c1,7.1%
COc1ccc2cc(CN(Cc3cccnc3)S(=O)(=O)c3ccccc3)c(=O)[nH]c2c1,25.1µM*
O=S1(=O)N=C(N2CCOCC2)c2ccccc21,3.5%
C=CCNC(=O)NC(=S)c1ccccc1,1.3%
COc1cccc(NC(=O)c2oc3ccccc3c2NC(=O)c2ccc3c(c2)OCO3)c1,31.6µM*
COCCCNS(=O)(=O)c1ccc(OC)c(Cl)c1Cl,10.7%
CCCOc1cccc(C(=O)N(Cc2ccco2)C2CCS(=O)(=O)C2)c1 (centres undefined),2.7%
CSCC[C@@H]1NC(=O)C/C=C\[C@@H](C)COC(=O)[C@H](C)COC1=O,0.6%[11.4 µM]
C=COCCNC(=O)Nc1ccc(Cl)c(Cl)c1,1.0%
COc1ccc(C(=O)N2CCC3(CC2)CCN(c2ncccn2)CC3)cc1,-8.5%
NC(=O)c1ccsc1NC(=O)C1CCCN1S(=O)(=O)c1ccc(Cl)cc1 (centres undefined),-2.4%
CCOC(=O)N1CCN(C(=O)CCN2C(=O)COc3ccc(C)cc32)CC1,-2.3%
Cn1c(CN2CCCCC2)c(C#N)c2ccccc21,?
CS(=O)(=O)n1nc(C(=O)N2CCOCC2)nc1N,4.8%
CCCn1c(NC(=O)C2CCN(S(=O)(=O)c3cccs3)CC2)nc2ccccc21,-3.3%
CCNc1nc(NC(C)C)nc(OCCNS(=O)(=O)c2cc(C)ccc2C)n1,-1.7%
C=C1C2(C(=O)NCc3ccco3)CCC(C2)C1(C)C (centres undefined),1.4%
COc1ccc(NC(=O)NCc2cccnc2)cc1OC,6.8%
COc1ccccc1NC(=O)CSc1nnc(Cn2c(=O)sc3ccccc32)n1C,-10.2%
Cn1nnnc1Sc1ncnc2scc(-c3ccccc3)c12,?
S[C@@H]1CCCN(Cc2ccccc2)C1,-4.3%[11.4 µM]
O=C(Cn1ccc2ccccc2c1=O)NCCC(=O)N1CCN(c2cccc(C(F)(F)F)c2)CC1,-1.3%
Oc1cccc(Nc2ncnc3ccccc23)c1,-7.9%
COc1cccc(C(=O)NC2(C(F)(F)F)N=C3SCCN3C2=O)c1 (centres undefined),8.9%
CN1CCC[C@H](C(=O)OCC(=O)[C@]2(O)CC[C@@H]3[C@H]4CCC5=CC(=O)CC[C@@]5(C)[C@H]4[C@@H](O)C[C@]32C)C1,5.3%[11.4 µM]
Cc1cc(C)nc(-n2nc(C)cc2NC(=O)c2cc3ccccc3oc2=O)n1,4.8%
O=C(CSc1nnc2c(Cl)cc(C(F)(F)F)cn12)Nc1ccc2c(c1)OCO2,?
CCCCn1c(SCC(=O)OCC)nc2c1c(=O)[nH]c(=O)n2C,-6.3%
Cc1cc(C(=O)CSc2nnc(-c3ccccc3)n2-c2ccccc2)c(C)n1-c1ncn[nH]1,-4.0%
CSCCC(NC(=O)CCN1C(=O)c2ccccc2C1=O)C(=O)O (centres undefined),1.6%
O=C(CN(Cc1ccccc1)C(=O)CCC(=O)Nc1ccccn1)NCc1ccco1,10.0%
Cc1ccc(CN2C(=O)CCC2C(=O)NCc2ccco2)cc1 (centres undefined),-29.8%
O=C(COC(=O)c1cc2ccccc2o1)c1ccccc1,3.1%
Cc1cccc(N2CCN(C(=O)C3CCCN(S(=O)(=O)c4c(C)noc4C)C3)CC2)c1C (centres undefined),-5.7%
CCOC(=O)c1c(NC(=O)CSc2nnc(Cc3csc(N)n3)n2C)sc(C)c1C,-2.2%
Cc1ccc(S(=O)(=O)N2CCN(C(=O)CCC(=O)N3CCc4ccccc43)CC2)cc1,2.0%
CCCn1c(C)cc(=O)c2cc(NC(=O)c3cnccn3)ccc21,-4.3%
O=C(Oc1nsnc1N1CCOCC1)N1CCCCC1,6.9%
CC1(C(=O)NC2CCCCC2)CCC(=O)N1Cc1cccnc1 (centres undefined),6.5%

# Molecules above that contain a COOH group:
SMILES,HSD17B inhib
Cc1cccc(NS(=O)(=O)c2cc(C(=O)O)ccc2Cl)c1,7.1%
CSCCC(NC(=O)CCN1C(=O)c2ccccc2C1=O)C(=O)O (centres undefined),1.6%

# Following part
SMILES,HSD17B inhib
COCc1nnc(NC(=O)CCC2CCCCC2)s1,-9.4%
O=C(O)c1cc(-c2ccncc2)nc2ccccc12,2.1%[11.4 µM]
Cc1ccc(S(=O)(=O)NCCc2ccncc2)cc1,-4.5%
COc1ccc(C(C(=O)NC2CCCCC2)N(CC2CCCO2)C(=O)CNC(=O)c2ccco2)cc1 (centres undefined),-4.0%
CC1Cc2ccccc2N1C(=O)CSc1nnc2sc3ccccc3n12 (centres undefined),-7.7%
COc1ncc2ncc(=O)n(C[C@H]3CCCO3)c2n1,7.3%
COc1ccc(S(=O)(=O)NC(CC(=O)NCc2ccccc2OC)c2ccco2)cc1 (centres undefined),0.6%
Nc1ccc(C(=O)C[C@H](N)C(=O)O)cc1O,1.4%[11.4 µM]
COCCSc1nnc(NC(=O)C2CCCO2)s1 (centres undefined),-0.9%
Cc1c(C#N)c2ccccc2n1CC(=O)NCc1cccnc1,0.2%
O=C1C=C(NCc2ccc(Cl)cc2)CC(c2ccco2)C1 (centres undefined),-10.1%
COc1ccc2c(c1)nc1n2CN(CC2CCCO2)CN1Cc1ccccc1 (centres undefined),0.8%
CNC(=O)c1ccc(OCc2ccccc2)c(OC)c1,-2.8%
CN1CC2=Cc3ccccc3OC23Oc2ccccc2C=C3C1,-1.4%
COc1ccccc1-c1ccc2ncnc(NCc3cccnc3)c2c1,?
CN(Cc1ccco1)c1nc(-c2ccccc2C(F)(F)F)nc2ccccc12,-24.8%
COC(=O)[C@@]1(Cc2ccc(OC)cc2)[C@H]2c3cc(C(=O)N(C)C)n(CCc4ccc(O)c(OC)c4)c3C[C@H]2CN1C(=O)c1ccccc1,14.6%
O=C(NC1CC2CCCC(C1)N2C(=O)N1CCCCC1)C1CCCCC1 (centres undefined),1.5%
Cc1cc(=O)cc2oc3cc(N)c(-c4c(C)cc(O)cc4O)c(C)c3nc1-2,7.94µM*
Cn1c(=O)c2c(nc(CN3CCc4ccccc4C3)n2CCc2ccccc2)n(C)c1=O,-3.9%
CCn1c(SCC(=O)OCc2ccccc2)nnc1-c1ccco1,?
O=C(Nc1ccc(S(=O)(=O)NCc2cccnc2)cc1)c1ccco1,-8.8%
Cc1cc(C)nc(SCc2nnc(SCC(=O)OC3CCCCC3)o2)n1,6.3%
CN(C)c1nc(-c2ccoc2)nc2ccccc12,?
CCOc1ccc(-n2cnnn2)cc1S(=O)(=O)NCc1ccccc1,5.1%
O=C(NCc1cccnc1)c1cnc2sccn2c1=O,31.6µM*
CC(=O)c1c(O)c(C)c(O)c2c1OC1=CC(=O)C(C(C)=O)C(=O)C12C (centres undefined),-17.5%
CCCN(CCC)CCNS(=O)(=O)c1ccc2c(c1)oc(=O)n2C,2.0%
Cc1cc(-n2[nH]c(C)c(C)c2=O)nc(-c2ccccc2O)n1,11.2%
CC(C)(C)NC(=O)Cn1c(SCC(=O)N2CCCCCC2)nc2ccccc21,9.1%
CCCc1nnc(NC(=O)C(C)N2C(=O)C3C4C=CC(C4)C3C2=O)s1 (centres undefined),2.3%
CCOC(=O)c1ccc(NC(=O)NCCN2CCCCC2)cc1,8.9%
Nn1c(SCC(=O)NC2CCCCC2)nnc1-c1ccc(Cl)cc1,-4.2%
CCOc1ccccc1NC(=O)c1cc(Cl)ccc1NC(=O)c1ccco1,-6.0%
CC(=O)OCC(=O)C1CCC2C3CC=C4CC(O)CC[C@@]4(C)C3CC[C@]12C (some centres undefined),3.4%
Cc1ccc(CCNC(=O)c2coc3nc4ccccc4nc23)cc1,25.1µM*

# The list goes on, overlapping the part above by 7 compounds.
SMILES,HSD17B inhib
CC(C)(C)NC(=O)Cn1c(SCC(=O)N2CCCCCC2)nc2ccccc21,9.1%
CCCc1nnc(NC(=O)C(C)N2C(=O)C3C4C=CC(C4)C3C2=O)s1 (centres undefined),2.3%
CCOC(=O)c1ccc(NC(=O)NCCN2CCCCC2)cc1,8.9%
Nn1c(SCC(=O)NC2CCCCC2)nnc1-c1ccc(Cl)cc1,-4.2%
CCOc1ccccc1NC(=O)c1cc(Cl)ccc1NC(=O)c1ccco1,-6.0%
CC(=O)OCC(=O)C1CCC2C3CC=C4CC(O)CC[C@@]4(C)C3CC[C@]12C (some centres undefined),3.4%
Cc1ccc(CCNC(=O)c2coc3nc4ccccc4nc23)cc1,25.1µM*
CCN(CC)S(=O)(=O)N1CCC(C(=O)NCCN2CCOCC2)CC1,11.6%
Cc1ccccc1S(=O)(=O)O[C@@H]1NS(=O)(=O)c2ccccc21,-3.2%[11.4 µM]
O=C(CCC1CCCCC1)Nc1c2c(nn1-c1ccc(F)cc1)CS(=O)(=O)C2,0.7%
CC(C)[C@@H]1N[C@]2(C(=O)Nc3ccccc32)[C@@H]2C(=O)N(c3cccc(C(F)(F)F)c3)C(=O)[C@@H]21,-17.2%
COc1ccc(OC)c(NC(=O)CSc2ccccc2)c1,-3.8%
C=CCCCCCCCCCCC/C=C/C(O)COC(C)=O (centres undefined),-10.0%
N#CCOc1nc(N2CCOCC2)nc(N2CCOCC2)n1,-9.3%
Oc1ccc(-c2[nH]ncc2-c2ccc(Cl)cc2)c(O)c1,?
C[N@@+]1(CC[N@@+]2(C)CCC[C@H]2c2cccnc2)CCC[C@@H]1c1cccnc1,2.7%[11.4 µM]
CC(=O)OCC(=O)[C@]1(O)C(OC(C)=O)CC2C3CCC4=CC(=O)C=C[C@@]4(C)[C@]3(F)C(O)C[C@]21C (some centres undefined),1.4%
CCOC(=O)N1CCC(N2CCN(c3cc(C)ccc3C)CC2)CC1,4.9%
Cn1c(=O)c2cc(S(=O)(=O)N3CCOCC3)ccc2n(C)c1=O,-12.5%
O=C(COc1ccc(-c2nnco2)cc1)N1CCN(S(=O)(=O)c2ccccc2)CC1,-2.9%
CCCCOCCCNC(=O)Cc1cccs1,-2.7%
CC1(C)CNC(=O)c2sc(N3CCCCC3)nc2C1,7.6%
COc1ccc(S(=O)(=O)N2CCSC2c2ccc(OC)c(OC)c2)cc1 (centres undefined),-2.7%
CC(=O)NCCc1ccc(S(=O)(=O)N2CCOCC2)cc1,-4.4%
CCCc1cc(C(=O)Nc2cccnc2)no1,3.1%
O=C(O)Cn1c(=O)oc2cc(S(=O)(=O)N3CCOCC3)ccc21,5.1%
CCc1ccc(CCC(=O)Nc2nnc(C)s2)o1,-2.1%
O=c1c2cccnc2[nH]c(=S)n1CCCN1CCN(c2ccccc2F)CC1,-0.1%
CCCCCOc1ccc(C(=O)NC(CCC)C(=O)O)cc1 (centres undefined),11.9%
CCC(=O)Nc1ccc(NC(=O)Cc2ccccc2)cn1,-11.6%
Cc1cc(Nc2cccc(F)c2)nc(-c2ccccc2O)n1,31.6µM*
N#CC(C(N)=O)=C1CCC2(CC1)OCCCCO2,11.4%
O=C(NCc1ccc(F)cc1)C1C2C=CC3(CN(Cc4cccnc4)C(=O)C13)O2 (centres undefined),1.4%
CCOc1cc(-c2nc(-c3ccc(C)nc3OCC)no2)cc(OCC)c1OCC,5.0%
O=C1c2ccccc2C(=O)N1c1ccc(-c2nc3ccccc3o2)cc1,2.0%
O=c1[nH]c2ccc(S(=O)(=O)NCc3ccccn3)cc2s1,-11.9%
CCN1CCN(C(=O)Nc2cccc3ccccc23)CC1,31.6µM*
O=C(COc1ccc(Cl)cc1)NCCCn1ccnc1,-1.8%
Cc1[nH]nc2ncc(C(=O)c3ccccc3O)cc12,-1.0%
c1ccc2c(CNn3cnnc3)cccc2c1,7.8%
O=c1[nH]c2[nH]c(=S)[nH]c(=S)c2[nH]1,2.51µM*
C[C@@H]1CC2(OC(O)[C@]3(C)O[C@H]23)O[C@H]2C[C@@]3(C)[C@@H]4CC[C@H]5C(C)(C)C(O[C@@H]6OC[C@@H](O)[C@H](O)[C@H]6O)CC[C@@]56C[C@@]46CC[C@]3(C)[C@@H]12 (some centres undefined),1.8%
OC(CNCc1ccco1)COc1ccccc1 (centres undefined),-5.4%
Cc1cc(NC(=O)c2cccc(S(=O)(=O)N3CCCC3)c2)no1,-1.3%
CS(=O)(=O)c1ccc(/C=N\NC(N)=S)cc1,0.8%[11.4 µM]
COC(=O)c1ccc(C(NC(=O)OCc2ccccc2)/C(=C/[C@@H](C)C(=O)N(C)Cc2cccnc2)c2cccnc2)cc1 (some centres undefined),-3.2%
FC(F)(F)c1cccc(N2CCN(Cc3cccnc3)CC2)c1,0.5%
COC(=O)C1=C(C)N(Cc2ccccc2)[C@]23O[C@](C(=O)OC)(C(=O)N2C1c1ccccc1)C1C(=O)N(C)C(=O)C13 (some centres undefined),5.3%&7.6%[11.4 µM]
CC(=O)c1cc(Cl)ccc1OC(=O)c1ccco1,-4.3%
COc1ccc(C(=O)NCCn2cc(SCC(=O)N3CCOCC3)c3ccccc32)cc1,-4.0%

# Source: PubChem BioAssay (National Center for Advancing Translational Sciences (NCATS))
